# Screens (PubChem)
# Bm FixLJ act: activators of Burkholderia fixLJ two-component system; z-score (no concentration beside the values); 29,000 compounds, 0.3% hits; B. multivorans fixK-promoter GFP reporter, 18 h; active compounds read high;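 active = replicate mean overnight rise in green fluorescent reporter signal, 3 or more SD over negative controls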;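 also: score is relative to vehicle wells of the plate; 300 nL library stock went into each well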
# The depositor's hits bear a star; & = joins results of further samples.
smiles	Bm FixLJ act
COc1cccc2c1OCC(C(=O)Nc1ccccc1CN1CCOCC1)C2 (configuration not stated)	-0.03
COc1cc2[nH]c(=O)n(CCCC(=O)NCc3ccc(Cl)cc3)c(=O)c2cc1OC	0.28
Cc1ccc(C(=O)N2CC3CCC(C2)N(CC(=O)N(C)C)C3=O)cc1C (configuration not stated)	-2.39
COCC1CCCN1S(=O)(=O)c1ccc2c(c1)CN(C(=O)C(C)(C)C)CC2 (configuration not stated)	-3.73
O=C(Cn1cc(C(=O)C(F)(F)F)c2ccccc21)N1CCCCCC1	-1.89
CCOc1ccccc1NC(=O)CSc1c2c(nc3ccc(Cl)cc13)CCCC2	-1.08
CCOC(=O)c1cnc2c(cnn2CC)c1NN=C(C)C	-1.22
Cc1cccnc1CNC(=O)N1CCCC2(CC1)CNC(=O)O2 (configuration not stated)	-0.14
CCC(=O)Nc1ccc(F)c(NC(=O)N(C)C(C)Cc2cc(C)ccn2)c1 (configuration not stated)	0.05
Cc1ccc(Cl)cc1N1CCN(C(=O)C2CCN(S(=O)(=O)c3cccc4nonc34)CC2)CC1	-1.52
O=C1CN(C(=O)c2ccc(S(=O)(=O)N3CCCC3)cc2)C(c2ccc(F)cc2)c2cc(F)ccc2N1 (configuration not stated)	-3.1
CCC(=O)N1CCc2cc(S(=O)(=O)NCCC(=O)Nc3ccc(CC)cc3)ccc21	-2.28
COc1cccc(CNC(=O)C2CCN(c3nn4c(=O)cc(C)nc4s3)CC2)c1	-2.59
CN(C(=O)c1csc(-c2ncccn2)n1)C1C[C@H]2CC(O)C[C@@H]2C1	-0.95
O=c1[nH]c(=O)n([C@H]2C[C@H](O)[C@@H](CO)O2)cc1F	-1.03
CCn1cc(C(=O)NCc2ccccc2Cl)c(=O)c2cc(S(=O)(=O)N3CCCCC3)ccc21	-0.17
CCCNC(=O)c1cc2c(s1)C1(CCN(Cc3ccccn3)CC1)OCC2	-3.14
Cc1nc(SCC(=O)N2CCC(c3nc4c(C)cccc4[nH]3)CC2)n[nH]1	-0.59
Cc1ccc(C)c(NC(=O)Cn2cc(C(=O)c3cccs3)c3ccccc32)c1	0.02
CCc1ccc(-n2c(=O)c3sc4ccccc4c3n(CC(=O)N3CCCC3)c2=O)cc1	-1.37
CCN(CC)c1nc(-c2ccccc2Cl)c2cc(Br)ccc2n1	-2.51
Cc1ncn(CCNC(=O)N2CCN(S(=O)(=O)N3CCCC3)CC2)c1C	-6.14
COc1cccc(OCC2CCCN(C(=O)c3ccoc3C)C2)c1 (configuration not stated)	-1.23
CCCCNC(=O)CCCn1c(=O)c2ccccc2n(Cc2ccc(Cl)cc2)c1=O	1.72
CCOC(=O)c1c(NC(=O)COc2cc(C)ccc2C(C)C)sc2c1CCCC2	-1.34
CCOc1ccccc1-n1c(N)c(C(=O)OC)c2nc3ccccc3nc21	-1.57
COc1cc(OC)cc(-n2c(=O)c3ccccc3n(Cc3ccccc3C#N)c2=O)c1	-0.5
CC/C(=C(\c1ccccc1)c1ccc(OCCN(C)C)cc1)c1ccccc1	-2.93&-1.49
CCOC(=O)c1c(NC(=O)C(C)Sc2cn(CCNC(=O)c3ccc(OCC)cc3)c3ccccc23)sc2c1CCC2 (configuration not stated)	0.4
CCCCSCCCNC(=O)CN1C(=O)COc2ccc(S(=O)(=O)N3CCC(C)CC3)cc21	1.51
Cc1nc2c(c(N(C)CC(O)CO)n1)Cc1ccccc1OC2 (configuration not stated)	-1.08
CC(C)NC(=O)c1cc2c(s1)C1(CCN(Cc3cccnc3)CC1)OCC2	-0.12
COc1ccc(C2c3c(-c4ccc(F)cc4)n[nH]c3C(=O)N2c2ccccc2)cc1OC (configuration not stated)	-1.46
CSc1cccc(NC(=O)CN(c2ccccc2)S(=O)(=O)N(C)C)c1	-0.45
CCCC1(C(=O)O)CCN(C(=O)c2ccc(SCCO)cc2)CC1	-2.1
CCOc1ccc(C(=O)Nc2cccc(NC(=O)c3ccco3)c2)cc1Cl	-1.48
Cc1cc(C)n(-c2nnc(Nc3ccc(C)c(C)c3)c3ccccc23)n1	-1.42
CCCCCCn1c(/C=C/c2ccccc2)nc2ccccc21	2.77
CCOc1ccc(-c2cc3nc(C4CCN(C(=O)OC(C)(C)C)CC4)c(C(=O)Nc4ccc(C)cc4C)cn3n2)cc1	-0.53
O=C(c1ccccc1)C1CCCN(C(=O)Cc2ccc(O)c(F)c2)C1 (configuration not stated)	-0.96
CCn1c2ccccc2c2cc(NC(=O)COc3cccc(C)c3)ccc21	0.03
COC(=O)c1ccccc1NC(=O)CSc1n[nH]c(C)n1	-1.18
Cc1ccc(CN(Cc2ccco2)C(=O)COc2cccc(C)c2C)o1	0.11
Cc1ccc(N(CC(=O)Nc2ccc(Br)cc2)S(=O)(=O)c2cccs2)cc1	0.5
COc1ccc(-c2cc(C(=O)Oc3cccc(C)c3)c3ccccc3n2)cc1	0.57
O=S(=O)(Nc1nc2ccccc2nc1Nc1ccccc1Br)c1ccccc1	0.66
COCCn1cncc1CNC(=O)N1CCCC1c1nc(-c2ccccc2)no1 (configuration not stated)	-2.49
O=C(NCCc1nc(C2CC2)no1)c1csc2c1CCCC2	1.55
Cc1cccc(NS(=O)(=O)c2ccc3[nH]c(=O)[nH]c3c2)c1C	1.15
O=S(=O)(NCc1noc(-c2c(F)cccc2F)n1)C1CC1	2.66
COc1cccc(NC(=O)Cn2cc(C(=O)C3CCCCC3)c3ccccc32)c1	0
O=C(c1ccc2cccc(F)c2n1)N1CCCN(C2COCC2O)CC1 (configuration not stated)	0.83
CCCCCCCCCCCCCCCC[n+]1ccccc1	-4.46
COc1ccc(NC(=O)CCc2c(C)nc3c(c2C)c(=O)n(C)c(=O)n3C)c(OC)c1	0.17
Cc1cccn2c(=O)c3cc(C#N)c(=O)n(-c4nnc(SCc5ccc(Cl)cc5)s4)c3nc12	-1.77
CCc1c(C)sc(NC(=O)C2c3ccccc3Oc3ccccc32)c1C(=O)OC(C)C	0.02
O=C(CCCCn1c(=O)c2ccccc2n(CC(=O)Nc2ccccc2)c1=O)NCc1ccccc1Cl	0.38
CC(C)c1nnc(N2C(=O)c3oc4ccccc4c(=O)c3C2c2cccc(O)c2)s1 (configuration not stated)	-1.11
CCCCc1ccc(-n2nc3cc(C)c(NC(=O)Cc4ccccc4)cc3n2)cc1	-1.67
COc1ccc(-c2[nH]ncc2C(=O)NCc2ccccc2C)cc1	-1.16

# Going on with the list.
smiles	Bm FixLJ act
Cc1ccc(-n2c(=O)c3c(cnn3C)n(CC(=O)Nc3c(C)cccc3C)c2=O)cc1	-1.11
Cc1nc2cc(-c3cccc(F)c3)nn2c(C)c1CCC(=O)Nc1ccccc1C(N)=O	-0.05
COc1ccc2cc3c(N)nn(C(=O)c4ccc(F)cc4Cl)c3nc2c1	-1.64
Cc1ccc(NC(=O)CCCN2C(=O)COc3ccc(C)cc32)c(C)c1	0.21
CC(=O)c1c(C)nc2nc(-c3ccccc3)nn2c1C	-1.26
CC(=O)SCC(Cc1ccccc1)C(=O)NCC(=O)OCc1ccccc1 (configuration not stated)	-1.52
Cc1ccccc1OCCCCn1nnc2sc3c(c2c1=O)CCC(C)C3 (configuration not stated)	-0.18
C#CCN(C)[C@H](C)Cc1ccccc1	-1.83
Cc1ccc(-n2nc(C(=O)N(C)c3ccccc3Cl)c3c4ccccc4n(C)c3c2=O)cc1	0.03
COCCc1nc(-c2cnc3ccccn3c2=O)n(CC(F)(F)F)n1	0.18
COc1ccc(OC)c(Nc2c3c(nc4ccccc24)CCC3)c1	0
Cc1c2cnn(-c3ccccc3)c(=O)c2c(C)n1CC(=O)Nc1ccccc1Br	-2.25
COC(=O)c1c(NC(=O)C2c3ccccc3Oc3ccccc32)sc2c1CCC(C)C2 (configuration not stated)	-1.05
Cc1ccc(NC(=O)CSCc2cnn(-c3ccccc3)c2-n2cccc2)c(C)c1	1.25
Cc1nn(-c2ccccc2)c(OC(=O)c2ccc(Cl)cc2)c1S(=O)(=O)c1ccccc1	0.4
CN1CCN(C2=Nc3ccccc3Oc3ccc(Cl)cc32)CC1	-1.91
COc1ccc(CCNC(=O)c2cc(=O)c3c(C)cc(C)cc3o2)cc1OC	-0.67
Cc1cc(C)c2c(n1)SCC(=O)N2CC(=O)Nc1cccc(C)c1C	-1.19
Cc1cc(C)c2c(NC(=O)c3ccccc3Cl)c(C(=O)NCc3ccc(Cl)cc3)sc2n1	-8.03
Cc1ccc(-c2cc(O)c3c(c2)CN(CCCO)CCO3)s1	-0.79

# 6 records picked at random from the list so far:
smiles	Bm FixLJ act
COc1ccc(OC)c(Nc2c3c(nc4ccccc24)CCC3)c1	0
Cc1nn(-c2ccccc2)c(OC(=O)c2ccc(Cl)cc2)c1S(=O)(=O)c1ccccc1	0.4
COc1ccc2cc3c(N)nn(C(=O)c4ccc(F)cc4Cl)c3nc2c1	-1.64
Cc1ccc(-n2nc(C(=O)N(C)c3ccccc3Cl)c3c4ccccc4n(C)c3c2=O)cc1	0.03
Cc1nc2cc(-c3cccc(F)c3)nn2c(C)c1CCC(=O)Nc1ccccc1C(N)=O	-0.05
Cc1cc(C)c2c(n1)SCC(=O)N2CC(=O)Nc1cccc(C)c1C	-1.19

# Continued.
smiles	Bm FixLJ act
Cc1ccc(NC(=O)COc2ccc(-c3nn(C)c(=O)c4ccccc34)cc2)c(C)c1	0.06
Cc1cccc(CN2CCC3(CC2)CN(Cc2ncc[nH]2)CC3C(=O)O)c1 (configuration not stated)	-2.8
O=C(Nc1cc(Cl)ccc1O)c1cc(-c2ccc3c(c2)OCO3)on1	-1.44
COc1ccccc1NC(=O)C1=C(C)Nc2nc(SCc3ccccc3Cl)nn2C1c1ccncc1 (configuration not stated)	-0.53
CCc1cc(C(=O)Nc2cnn(Cc3ccccc3C)c2)no1	-1.57
Cc1ccccc1CNC(=O)CCCn1ncn2c(cc3occc32)c1=O	-2.2
NS(=O)(=O)c1cc2c(cc1Cl)NC(CSCc1ccccc1)=NS2(=O)=O	-1.01
CSCc1nc(CCNC(=O)Cc2cccc(O)c2)cs1	-2.39
O=C(NCCCn1ccnc1)N(CC=Cc1ccccc1)C1CC1	-0.5
COc1ccccc1C(=O)Nc1c(C(=O)Nc2ccccc2F)oc2ccccc12	0.56
Cc1cccc(NC(=O)c2c(NC(=O)c3ccco3)sc3c2CCC(C)C3)c1 (configuration not stated)	0.38
O=C1NCCN(C(=O)NC(C2CC2)C2CC2)C1c1ccc(F)cc1 (configuration not stated)	-3.07
O=C(CC1NCCNC1=O)Nc1cccc(F)c1 (configuration not stated)	-0.5
COc1ccccc1Nc1c2c(nc3ccc(NC(=O)c4cccc(F)c4)cc13)CCCC2	-0.55
CCOc1ccc(NS(=O)(=O)c2ccc3[nH]cc(C(=O)NCc4ccccc4)c(=O)c3c2)cc1	-3.22
O=S(=O)(c1ccc(F)cc1)N1CCC(Oc2cccc(C(F)(F)F)c2)CC1	-0.32
O=C(NCCc1ccccc1)c1cc(-c2ccc(Br)cc2)on1	-0.25
CCOc1ccc2nc(N3CCCC(C(=O)NCCCOC)C3)sc2c1 (configuration not stated)	-0.97
Cc1cccc(Nc2nnc(-c3ccc(C)c(S(=O)(=O)N4CCOCC4)c3)c3ccccc23)c1	0.01
N#Cc1nc(/C=C/c2ccc(F)cc2)oc1N1CCN(c2ccccc2)CC1	-1.02
Cc1ccccc1C(=O)Nc1sc2c(c1C(=O)N1CCC(C)CC1)CCC(C)C2 (configuration not stated)	-0.21
O=C(c1ccccn1)C1CCCN(c2ncc(F)c(N3CCOCC3)n2)C1 (configuration not stated)	0.24
COc1cccc(-n2c(=O)c3c4c(sc3n(Cc3ccccc3C#N)c2=O)CCCC4)c1	-1.9
CCOc1ccc(CN(CCOC)C(=O)Nc2ccc3c(c2)C(=O)OC3)cc1	-1.9
CCn1c(Cn2ccnc2C)nnc1C1CCN(C(=O)COC)CC1	-3.52
Cc1cccc(C)c1Nc1c(-c2ccc(N3CCOCC3)cc2)nc2ncccn12	-0.35
Cc1cc(NC(=O)c2ccc(-c3ccc(Cl)cc3)o2)cc(-c2nc3ncccc3o2)c1O	0.6
COc1ccc(NS(=O)(=O)c2ccc(N)cc2)nn1	1.5
CCCn1cnnc1CNS(=O)(=O)c1cc(-n2cccn2)ccc1OC	-2.78
CCCS(=O)(=O)c1nc(S(=O)(=O)c2ccc(C)cc2)c(N(C)Cc2ccccc2)s1	1.51
O=C(Nc1sc2c(c1C(=O)NCc1ccco1)CCCC2)c1cc(=O)c2cc(Cl)ccc2o1	-1.61
Cc1ccc(NC(=O)CC2Nc3ccccc3NC2=O)cc1C (configuration not stated)	-1.93
COC(=O)c1ccccc1NC(=O)c1cnc(Nc2ccc(OC)cc2)c2ccccc12	0.44
COCCCNc1nc2cc(OC)c(OC)cc2c2nc(-c3ccccc3)nn12	0.14
COc1ccc(NC(=O)Cn2c(=O)n(Cc3ccco3)c(=O)c3cc(OC)c(OC)cc32)cc1	-0.03
O=C(CSc1nc(-c2ccccc2)[nH]c1-c1ccc(F)cc1)NC1CCCC1	-2.74
Cn1c(CN2CCOCC2)nnc1C1CCN(Cc2cnc[nH]2)CC1	0.1
Cc1cc(C)c2oc(C(=O)Nc3nc4ccc(Cl)cc4s3)cc(=O)c2c1	-2.1
Cc1cc(-c2ccc(S(=O)(=O)N3CCCC(C(=O)c4ccccn4)C3)s2)on1 (configuration not stated)	-0.05
COC(=O)c1ccccc1NC(=O)Cn1c(CCC(=O)O)ccc1-c1ccc(C)cc1	-3.3
CC(C)c1ccc(NC(=O)CC2NCCNC2=O)cc1 (configuration not stated)	-0.75
Cc1cc(N2CCN(C(=O)NCc3nccn3C)CC2)nc(N)n1	0.13
O=C(c1ccc(-n2cnnc2)cc1)N1CCC2(CCNCC2)CC1	-0.24

# This is a subset, so the mix of outcomes need not match the whole.
